# Arbovirus anti – blocks arbovirus infection | arbovirus infection cell-based antiviral screen | inhibition, % at 10 µM | 200,000 compounds, 0.37% hits | AID 1251;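 active = inhibition from about 30%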;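 also: bluetongue infection of BSR cells; cell survival read as ATP light after 72 h; 0% = infected wells without compound and 100% = uninfected wells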
# RecA intein inh – blocks M. tuberculosis RecA intein splicing | 290,000 compounds, 0.75% hits | cell-free RecA intein splicing, fluorescence | inhibition, %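 (about 9 µM by stock and volumes)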; in the data active = inhibition above about 30%; inconclusive = no clear call, values can overlap the other calls;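 also: 0% = vehicle wells and 100% = reference inhibitor control wells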
# Target sequence (P9WHJ3 whole entry, looked up): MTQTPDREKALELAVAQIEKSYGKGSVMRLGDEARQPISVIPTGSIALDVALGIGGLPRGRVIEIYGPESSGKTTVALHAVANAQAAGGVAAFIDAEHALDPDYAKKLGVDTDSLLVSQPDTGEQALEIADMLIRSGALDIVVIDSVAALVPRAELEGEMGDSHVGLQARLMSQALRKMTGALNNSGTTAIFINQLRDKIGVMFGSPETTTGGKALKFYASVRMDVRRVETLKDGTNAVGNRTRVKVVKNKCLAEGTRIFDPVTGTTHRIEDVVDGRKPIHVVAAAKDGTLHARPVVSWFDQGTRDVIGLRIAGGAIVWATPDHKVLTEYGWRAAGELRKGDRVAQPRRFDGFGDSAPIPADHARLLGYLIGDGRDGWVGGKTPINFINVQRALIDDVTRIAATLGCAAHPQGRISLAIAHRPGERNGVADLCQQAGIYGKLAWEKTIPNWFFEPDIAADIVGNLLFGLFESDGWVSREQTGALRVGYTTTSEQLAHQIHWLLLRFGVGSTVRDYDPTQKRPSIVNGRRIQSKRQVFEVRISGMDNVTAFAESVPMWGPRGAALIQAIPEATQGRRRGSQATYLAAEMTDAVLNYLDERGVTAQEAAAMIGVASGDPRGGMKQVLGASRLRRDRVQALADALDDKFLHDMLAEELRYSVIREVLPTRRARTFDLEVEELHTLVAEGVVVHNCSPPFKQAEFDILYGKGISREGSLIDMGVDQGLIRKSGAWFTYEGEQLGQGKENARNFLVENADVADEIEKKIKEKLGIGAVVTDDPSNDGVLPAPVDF
# Mtb H37Rv – M. tuberculosis H37Rv growth inhibitors, H37Rv strain (AID 1626) | M. tuberculosis H37Rv growth inhibition; higher % means a stronger effect | one-dose inhibition, % at 10 µM; IC50 in µM for titrated hits | 220,000 compounds, 0.95% hits;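 active = confirmed in a dose series; inconclusive = inhibition above 80% but not taken into the dose series; inactive = below 80% or under 30% at every dose of the series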;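 also: bacteria incubated seven days before Alamar blue readout; 0% = bacteria only wells and 100% = bacteria with antibiotic wells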
# Mtb bLac sens – beta-lactam sensitization of Mtb H37Rv | M. tuberculosis H37Rv growth with meropenem, percent inhibition; hits of this screen are not shown here | inhibition, % at 25 µM | 330,000 compounds, 0.27% hits | AID 434955;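 active = about 74% or more and at least 40 points above the plate without the antibiotic, then above 30% in a dose series; inconclusive = first-round hits that could not be retested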;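 also: growth measured after seven days incubation then overnight dye step; 0% = bacteria only wells and 100% = bacteria with antibiotic; twin plates without the antibiotic show which effects depend on it; some results filed as inactive read as strong as hits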
# YopH inh – YopH (Yersinia) phosphatase inhibition | fluorescence Ex485/Em525 | inhibition, %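 (about 10 µM by stock and volumes)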 | 140,000 compounds, 0.16% hits;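 active = inhibition of 50% or more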;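 also: controls were vehicle for no effect and minimum signal wells for full effect; inactives centre near -20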
# Arbovirus anti repeat – also measured in Arbovirus anti; calls as there; inhibition, %; measured here: 10K subset replicate screen; many hits read low in the repeat;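 first of two repeat runs on a subset; 0% = infected and 100% = uninfected wells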
# Numbers without * were called inactive; ? = inconclusive; · = no result given. An excerpt; count on the stated rates, not on these rows.
SMILES,Arbovirus anti,RecA intein inh,Mtb H37Rv,Mtb bLac sens,YopH inh,others
COc1ccc(C#Cc2c(-c3ccsc3)oc3ccc(N4CCOCC4)cc23)cc1,·,-1.7,26%,74,·,
Cc1c2c(nc3nc4ccccc4n13)CC(C)(C)CC2=O,-4,·,-6%,-2,-11,
O=C(CC(=O)Nc1cccc(F)c1)Nc1cccc(F)c1,·,-1.4,·,6,·,
CC(=O)NCCNc1ccc([N+](=O)[O-])cn1,3,0.2,0%,2,0,
COc1ccc(/C=C2\CCC(C3CCCC3)C2=O)c(OC)c1 (centres undefined),·,3.0,·,9,·,
O=C(Cc1ccccc1)NN1C(=O)/C(=C/c2ccc(C(=O)O)cc2)SC1=S,·,0.6,13%,-10,·,
O=C(NCc1cccs1)C1CCCCC1,1,1.3,3%,4,-1,
COC(=O)C(C(=O)NCC1CCCO1)C1CCCC1 (centres undefined),2,-1.7,5%,-10,-11,
Cc1cc(C)cc(NC(=O)C(NCCN2CCOCC2)c2ccccc2)c1 (centres undefined),16,-2.5,2%,2,·,
Cc1c(C(=O)Nc2ccncc2)sc2nc(-c3ccc(F)cc3)cn12,0,1.3,14%,2,-30,Arbovirus anti repeat=-1
COc1ccccc1C(=O)Nc1ccnn1C1CCN(C/C=C/c2ccc(F)cc2)CC1,·,0.0,·,5,·,
O=C(NC1CCN(Cc2ccccc2)CC1)c1ccc(Oc2cc(Cl)cc(Cl)c2)o1,·,1.5,79%,19,·,
C[C@]12C(=O)N(c3ccccc3)C(=O)N1[C@@H]1c3ccccc3OC[C@@H]1[C@H]2c1ccccc1,·,3.1,·,6,·,
COc1ccccc1-c1c(C)[nH]n2c(=O)c(Cc3ccccc3)c(C)nc12,2,-4.3,0%,6,·,
COC(=O)N1C(=O)[C@@](c2ccc(OC)cc2)(C(C)C)N1C(=O)OC,·,7.3,·,-5,·,
O=C(CNC(=O)Cc1cccc2ccccc12)NCc1ccccc1F,·,0.4,·,-5,·,
CCOc1ccc(NS(=O)(=O)N(C)C)cc1,3,2.3,12%,0,11,
CCCCC(CCC(=O)NNC(=O)Cc1ccccc1)C(=O)O (centres undefined),7,-0.2,2%,0,-15,
Cc1c(O)nc(SC2CC(=O)N(c3cc(Cl)cc(Cl)c3)C2=O)[nH]c1=O (centres undefined),·,1.5,·,15,·,
COc1ccc(NC(=O)Cn2nnc(C(=O)NCc3cccc(OC)c3)c2N)cc1,18,0.3,-10%,-1,-43,

# Not a retest: 7 of the compounds above.
SMILES,Arbovirus anti,RecA intein inh,Mtb H37Rv,Mtb bLac sens,YopH inh,others
COc1ccc(C#Cc2c(-c3ccsc3)oc3ccc(N4CCOCC4)cc23)cc1,·,-1.7,26%,74,·,
Cc1c2c(nc3nc4ccccc4n13)CC(C)(C)CC2=O,-4,·,-6%,-2,-11,
O=C(CC(=O)Nc1cccc(F)c1)Nc1cccc(F)c1,·,-1.4,·,6,·,
CC(=O)NCCNc1ccc([N+](=O)[O-])cn1,3,0.2,0%,2,0,
COc1ccc(/C=C2\CCC(C3CCCC3)C2=O)c(OC)c1 (centres undefined),·,3.0,·,9,·,
O=C(Cc1ccccc1)NN1C(=O)/C(=C/c2ccc(C(=O)O)cc2)SC1=S,·,0.6,13%,-10,·,
O=C(NCc1cccs1)C1CCCCC1,1,1.3,3%,4,-1,

# (list continues)
SMILES,Arbovirus anti,RecA intein inh,Mtb H37Rv,Mtb bLac sens,YopH inh,others
CCC(C)(C)NC(=O)C(c1ccc(OC)cc1)N(Cc1ccccc1)C(=O)CCC(=O)Nc1cc(C)on1 (centres undefined),·,-4.2,·,-11,·,
N=C1c2ccccc2CN1NC(=O)c1ccc(F)cc1,3,·,-5%,5,-28,
O=C(NCc1nnc(SCC(=O)N2CCOCC2)o1)c1c(F)cccc1F,·,-2.0,·,-12,·,
COCCNC(=O)CCc1nc(-c2ccccc2)no1,-1,1.2,5%,-11,-48,
CC1CC(C)CN(C(=O)c2ccc(C#N)cc2)C1 (centres undefined),0,-0.5,0%,-6,·,
Cc1ccccc1N(C(=O)c1csnn1)C(C(=O)NC1CCCC1)c1ccncc1 (centres undefined),·,-0.4,·,0,·,
CN(c1ccccc1)S(=O)(=O)c1cccc(NC(=O)CCN2C(=O)C3CCCCC3C2=O)c1 (centres undefined),2,4.1,2%,-2,·,
COc1ccc(OC)c(C2CC(=O)Nc3cc(OC)c(OC)c(OC)c32)c1 (centres undefined),1,4.0,-1%,0,-22,
COc1ccccc1NS(=O)(=O)c1cc(NC(=O)C2CC2)ccc1N1CCOCC1,-1,1.4,-2%,-5,·,
COC(=O)CNc1c(-c2ccccn2)nc2ccc(Br)cn12,-2,-1.1,-5%,2,-38,Arbovirus anti repeat=-6
O=C(O)CC(c1cccc(C(F)(F)F)c1)N1CCS(=O)(=O)CC1 (centres undefined),3,-1.2,2%,0,·,
COc1ccccc1N1CCN(/N=C/c2ccc([N+](=O)[O-])cc2)CC1,·,5.8,·,2,·,
CC(Sc1nnc(COc2ccc3ccccc3c2)n1C)C(=O)O (centres undefined),15,0.4,-13%,0,-49,
Cc1ccccc1C(=O)Nc1ccc(N2CCN(C(=O)c3ccco3)CC2)cc1,·,-0.7,·,-4,·,
CC(C)=CCN1CCN(CC#Cc2ccccc2)CC1CCO (centres undefined),-2,-0.5,-7%,0,·,
C/C=C1\COC(C(=O)NCCN2CCCC2)(C(F)(F)F)C=C1C=C1CCCCC1 (centres undefined),·,5.2,7%,1,·,
CC1=C(C(=O)c2ccccc2)C(c2ccc(OC(F)F)cc2)NC(=S)N1 (centres undefined),-10,4.9,-9%,6,·,
CS(=O)(=O)c1ccccc1-c1nnc(NC(=O)CCS(=O)(=O)c2ccc(Cl)cc2)o1,·,0.9,·,0,·,
Cc1cc(C(=O)CN2C(=O)C3CC=CCC3C2=O)c(C)n1-c1ccccc1 (centres undefined),-10,-0.2,-4%,-1,-9,
COc1ccc(CCN2C(=O)NC(NC(=O)CC(C)C)(C(F)(F)F)C2=O)cc1OC (centres undefined),3,-0.6,-2%,-6,-30,
Cc1ccc(NS(=O)(=O)c2ccc(C(=O)N3CCCC(C(F)(F)F)C3)cc2)cc1 (centres undefined),·,-1.7,·,-6,·,
CC1CCN(C(=S)c2ccccc2O)CC1,3,0.5,-4%,-9,-14,
CCOc1ccc(N(Cc2ccc(OC)c(OC)c2)C(=O)c2ccco2)cc1,-8,-1.8,7%,-3,·,
CCN(CC)S(=O)(=O)c1ccc(NN=C2CCN(C)CC2)c([N+](=O)[O-])c1,3,0.7,0%,-2,·,
COc1cc(CN(CC2CCCO2)C(=O)c2ccco2)cc(OC)c1OC (centres undefined),·,2.2,·,-6,·,
Cc1cc2cc(CNC(=O)c3ccc(S(=O)(=O)N4CCCCC4)cc3)ccc2[nH]1,-3,3.7,-1%,-2,-28,
CCOc1ccccc1C(=O)N(CN1CCCC1=O)c1cccc(Cl)c1,4,0.5,-19%,-3,-44,
c1ccc(Cc2cc[n+](Cc3ccccn3)cc2)cc1,·,-1.2,10%,-3,·,
CC(C)C(=O)N1CCN(c2ccc([N+](=O)[O-])cc2Cl)CC1,-3,1.9,1%,0,-15,
COc1ccccc1C1CCN(C(=O)c2ccc(C(C)(C)C)cc2)CC1,·,26,·,64,·,
CN1CCN(S(=O)C23CC4CC(CC(C4)C2)C3)CC1 (centres undefined),2,1.1,-5%,0,-17,
COc1ccc(C2=NS(=O)(=O)N(C)C(C(=O)NC3CCCC3)=C2)cc1,·,-5.2,·,6,·,
COc1ccc(Nc2nc3ccc(C)cn3c(=O)c2/C=N/O)cc1,1,4.6,-3%,-2,·,
COCC(C)NC(=O)C1CC(=O)N(c2ccc(C)cc2)C1 (centres undefined),6,-1.0,-7%,3,-50,
CC(=O)NC(CC(=O)Nc1nccs1)c1ccccc1 (centres undefined),·,-0.3,·,-3,·,
Cc1cc2cc(CCNC(=O)c3cccs3)c(=O)[nH]c2cc1C,5,0.2,·,1,-36,
COc1cccc(NC(=O)CN2C(=O)COc3ccc(Cl)cc32)c1,1,-3.4,-2%,-2,·,Arbovirus anti repeat=-5
Cc1ccc(OCC(=O)NCCCNC(=O)c2ccncc2)cc1C,·,-1.0,·,3,·,
CCCn1c(=S)[nH]c2ccc(C(F)(F)F)cc21,-10,1.8,0%,-5,·,
CCOC(=O)CSc1nc(-c2ccccn2)ncc1OC,-5,1.0,10%,-2,·,
CCCn1nc(CC(=O)O)c2ccccc2c1=O,7,1.7,-4%,-8,-35,
CCN(CC)CCCNC(=O)C1CCN(C(=O)c2oc3cc4sc(N(C)C)nc4cc3c2C)CC1,·,1.3,·,-1,·,
O=C(NCCCN1CCOCC1)C(Sc1ccccc1)c1ccccc1 (centres undefined),5,-4.7,-6%,1,-36,
COC(=O)c1cc2ccccc2n1Cc1ccc(Cl)nc1,·,2.9,·,4,·,
Cc1ccc(NC(=O)CC(NCCN2CCOCC2)C(=O)O)cc1Cl (centres undefined),-8,-3.0,-5%,-4,-28,
Cc1ccc2c(c1)CCCN2N=O,-1,1.7,0%,-6,-21,
CCOC(=O)C1=C(C)NC(=O)CC1c1cc(OC)c(OC)cc1Br (centres undefined),10,-1.1,0%,-1,·,
CC(=O)c1ccc(NC(=O)C(=O)c2cn(CC(=O)N3CCCCC3)c3ccccc23)cc1,13,1.3,-2%,10,-21,
COc1cc2c(cc1OC)C(c1ccc(N(C)C)cc1)NCC2 (centres undefined),·,-3.4,·,9,·,
CCn1c(-c2ccc(N)cc2)nc2ccccc21,-2,-0.7,-5%,2,-48,Arbovirus anti repeat=-4
CCCNC(=O)C(C)n1c2ccccc2c2nc(=O)cc(C)n21 (centres undefined),0,·,-3%,·,-28,
CCOC(=O)C1=C(CSc2nc3c(cc2C#N)CCC3)OC(N)=C(C#N)C1c1ccccc1 (centres undefined),1,·,-4%,2,-28,
COc1ccc(CCNC(=O)C/C(C)=N/NC(=O)c2ccc(N)cc2)cc1OC,-1,-3.9,-8%,7,-22,
O=[N+]([O-])c1cccc(Cl)c1CSc1ccccn1,-3,0.8,1%,4,·,
CCn1nc(C)cc1C(=O)N1CCCC(C(=O)c2ccc3ccccc3c2)C1 (centres undefined),10,-1.8,6%,22,·,
NS(=O)(=O)c1ccc(NC(=O)c2cc(Cl)ccc2Cl)cc1,-6,-0.6,0%,-7,·,
CCOc1ccc(NS(=O)(=O)c2ccc(C(=O)N3CCN(c4ncccn4)CC3)cc2)cc1,8,-2.7,6%,3,·,
COc1ccc(N(CCC#N)C(=O)/C(C#N)=C\c2cccs2)cc1,·,2.1,-5%,-5,·,
COc1ccc(N2C(=O)[C@H]3[C@@H](C2=O)C2c4ccccc4C=NN2[C@H]3C(=O)C(C)(C)C)cc1 (some centres undefined),·,-1.7,4%,1,·,
CCOC(=O)c1c(NC(=O)Cc2cccs2)sc(C(=O)NC2CCCC2)c1C,9,-0.2,3%,-4,-7,

# Other results follow:
SMILES,Arbovirus anti,RecA intein inh,Mtb H37Rv,Mtb bLac sens,YopH inh,others
CC(=O)Nc1nnc(CCS(=O)(=O)c2ccc(C)c(C)c2)s1,3,3.1,-1%,-1,·,
O=C(NCc1ccc(Cl)cc1)C1CCN(c2nnc(N3CCCC3=O)s2)CC1,·,-0.5,·,1,·,
COc1cccc(S(=O)(=O)NCc2ccc(C(=O)Nc3ccc(C)cc3)cc2)c1,-8,6.2,12%,0,7,
C=CCOc1c(Br)cc(/C=N/n2c(CC)n[nH]c2=S)cc1Br,8,2.5,3%,6,-23,
COc1cc(C(=O)NCC2CCCO2)ccc1OCc1ccccc1Cl (centres undefined),·,1.0,·,27,·,
COC(=O)C1CCN(CC(=O)Nc2ccccc2Sc2ccccc2)CC1,11,12,12%,3,·,
O=C(CN1C(=O)COc2ccc(S(=O)(=O)N3CCCCCC3)cc21)NCc1ccc(F)cc1,·,0.9,·,?,·,
O=c1[nH]c(=S)n(C2CC2)c(O)c1C=NCCN1CCOCC1,·,-1.8,-8%,1,·,
COc1ccccc1-n1nc(C)cc1N,15,-2.3,-11%,-9,·,
CC(=O)c1ccc(NC(=S)NC(=O)/C=C/c2ccco2)cc1,·,2.9,·,6,·,
COc1ccc(CNC(=O)c2ccccc2[N+](=O)[O-])cc1,0,-2.1,9%,10,-40,
Cn1c(NC(=O)c2ccc(F)cc2)c(-c2ccccn2)c(=O)c2ccccc21,·,-1.2,5%,-5,·,
Cc1c(C#N)c2ncn(Cc3ccccn3)c(=O)c2n1-c1ccccc1,3,-2.2,-4%,-6,-1,

# High-throughput results: PubChem, several laboratories
